FPR ligand: human FPR ligands by binding competition, primary screen, cell-based, FPRL1 counter-screen, flow cytometry; actives 0.74% (n = 24,000); inhibition, %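 (tested at 6.7 µM)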; AID 440, 2006; FPR-expressing cells, fluorescent ligand binding;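 further: 0% = buffer wells and 100% = receptor blocker peptide wells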
Target sequence (P21462 whole entry, looked up): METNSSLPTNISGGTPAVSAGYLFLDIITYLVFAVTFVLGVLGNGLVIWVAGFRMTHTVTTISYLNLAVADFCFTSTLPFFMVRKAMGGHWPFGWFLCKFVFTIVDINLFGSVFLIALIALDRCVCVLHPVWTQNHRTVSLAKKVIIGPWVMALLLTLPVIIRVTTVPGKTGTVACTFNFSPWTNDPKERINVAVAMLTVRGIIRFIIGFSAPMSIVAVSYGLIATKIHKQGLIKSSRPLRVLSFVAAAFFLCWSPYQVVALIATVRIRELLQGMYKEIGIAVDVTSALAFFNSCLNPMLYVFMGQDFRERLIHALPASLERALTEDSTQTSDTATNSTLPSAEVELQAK
FPRL1 binder: human FPRL1 ligands by binding competition, primary screen, cell-based, FPR counter-screen, flow cytometry. N-formyl peptide receptor 2 (Homo sapiens), P25090. FPRL1-expressing cells, fluorescent ligand binding inhibition. inhibition, %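 (tested at 6.7 µM)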. actives 0.3% (n = 24,000);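 further: 0% = buffer alone and 100% = receptor blocker peptide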
Target sequence (P25090 whole entry, looked up): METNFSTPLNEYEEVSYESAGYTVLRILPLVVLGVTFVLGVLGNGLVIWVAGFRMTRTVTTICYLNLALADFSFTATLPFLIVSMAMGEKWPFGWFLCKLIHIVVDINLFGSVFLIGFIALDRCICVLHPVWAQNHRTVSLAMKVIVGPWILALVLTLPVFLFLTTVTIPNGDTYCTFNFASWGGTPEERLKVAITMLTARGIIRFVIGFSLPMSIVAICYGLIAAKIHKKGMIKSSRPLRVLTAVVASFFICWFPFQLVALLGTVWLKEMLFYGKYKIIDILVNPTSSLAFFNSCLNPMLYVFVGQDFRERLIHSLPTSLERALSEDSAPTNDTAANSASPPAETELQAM
VCAM-1 down: inhibitors of TNFa-induced VCAM-1 surface display, cell-based, plate reader, pooled HUVEC, TNFa stimulus (AID 454). HUVEC TNFa-induced VCAM-1 surface immunofluorescence, plate reader; numbers were filed only for top-ranked candidate wells. inhibition, % at 5 µM. actives 0.2% (n = 10,000);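 active means compound among top-ranked inhibitors of TNF-induced VCAM-1 adhesion protein staining, with the hit upheld by image or statistical review; inactive means the rest, including hits rejected on review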;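 further: 0% = TNFa with vehicle and 100% = cells without TNFa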
VCAM-1 augmentation: enhancers of VCAM-1 display on endothelial cells, imaging, high-content imaging, pooled HUVEC, TNFa stimulus (AID 457). calls only. Pooled HUVEC, TNFa-induced VCAM-1 immunofluorescence imaging; hits of this screen are not shown here. actives 0.2% (n = 10,000);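 active means a top-ranked rise in VCAM-1 staining upheld on image or statistical review; inactive means the rest, including candidates rejected on review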;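 further: compounds tested at 5 µM in the well; cells exposed to compound for 24 hours before fixing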
VCAM-1 down imaging: inhibitors of TNFa-induced VCAM-1 surface display, imaging, high-content imaging, pooled HUVEC, TNFa stimulus (AID 456); HUVEC TNFa-induced VCAM-1 surface expression, immunofluorescence imaging; numbers were filed only for top-ranked candidate wells; inhibition, % at 5 µM; hits with a dose series show IC50 in µM; actives 0.2% (n = 10,000);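 active means top tenth filtered wells with inhibition above zero that passed visual or statistical confirmation; inactive means the rest, including hits rejected on review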;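 further: 0% = stimulated vehicle wells and 100% = unstimulated cells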
The depositor's hits bear a star; i = inactive; · = no result given.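 How the source made its calls, unless noted: active means mean above 30%; inconclusive means self-fluorescent; inactive means the rest.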 Not all compounds are listed, so the mix of outcomes need not match the whole.

SMILES	FPR ligand	FPRL1 binder	VCAM-1 down	VCAM-1 augmentation	VCAM-1 down imaging
CCOc1cc2[nH]c(=S)n(CC3CCCN3CC)c(=O)c2cc1OCC (configuration not stated)	-6.0	1.5	·	·	·
CCOc1ccc(OCC)c(Nc2cc(C)nc3ncnn23)c1	0.2	1.7	·	·	·
CS(=O)(=O)N1CCN(c2ccccc2NC(=O)c2cccs2)CC1	4.8	-3.7	i	i	i
COc1ccc(-c2cc(N3CCCC3)n3ncnc3n2)cc1	12.0	3.6	i	i	i
CCC(C)(C(=O)NC1CCCC1)N(C(=O)c1ccccn1)c1ccccc1 (configuration not stated)	-1.8	-3.6	·	·	·
CCOc1ccc(NC(=O)CSc2nnc(Cc3cccn3C)n2-c2ccc(F)cc2)cc1	-0.1	6.7	·	·	·
COC(=O)c1cc(S(=O)(=O)N2CCOCC2)ccc1Sc1ccccc1N	1.0	-2.5	·	·	·
CCOC(=O)N1CCC(NC(=O)c2ccc(CS(=O)(=O)c3c(Cl)cccc3Cl)o2)CC1	-1.2	-1.6	i	i	i
CCOC(=O)N1CCC(NC(=O)C2CCN(S(=O)(=O)N3CCCC3)CC2)CC1	-1.0	-3.0	·	·	·
COc1ccccc1N1CCN(C(CNS(=O)(=O)c2ccc(C)cc2)c2cccnc2)CC1 (configuration not stated)	0.7	3.5	·	·	·
Clc1ccc(SCCCCn2ccnc2)cc1	0.3	11.0	i	i	i
Oc1ccc(-c2n[nH]c(=S)n2Cc2ccccc2)cc1	-5.5	0.8	i	i	i
Cc1cc2nc(C)n(CCCNC(=O)Nc3ccc(C#N)cc3)c2cc1C	-9.6	-6.1	·	·	·
CCOC(=O)[C@@H]1CCNC[C@@H]1c1ccccc1	8.8	-2.1	·	·	·
Cc1cccc(C2CC(c3ccc(Br)cc3)Nc3nc(N)nn32)c1 (configuration not stated)	4.7	-0.1	i	i	i
CC(C)C(NS(=O)(=O)c1ccc2c(c1)oc(=O)n2C)C(=O)N1CCN(Cc2ccccc2)CC1 (configuration not stated)	1.5	12.0	·	·	·
CCOC(=O)C1(CC)NC(c2cccc(F)c2)C2C(=O)N(CC)C(=O)C21 (configuration not stated)	-3.7	-4.5	i	i	i
CCOC(=O)CSc1nc2ccc(N3CCOCC3)cc2c(=O)n1Cc1ccc2c(c1)OCO2	7.9	-0.8	·	·	·
Cc1cc(=O)[nH]c2cc(Cl)ccc12	-5.7	0.1	·	·	·
NC(=O)C1CCN(CCCNC2CC(=O)N(Cc3ccc(N4CCCC4=O)cc3)C2=O)CC1 (configuration not stated)	-2.3	-4.2	·	·	·
COC(=O)C1=C(C)NC(C)=C(C(=O)OC)C1C1CC=CCC1 (configuration not stated)	-9.1	3.2	i	i	i
O=C1CC(C(=O)Nc2ccc(Br)cc2)C2(CCCC2)O1 (configuration not stated)	-6.5	1.5	i	i	i
Cc1c(C(=O)NCc2cccnc2)oc2ccc(S(=O)(=O)N3CC(C)CC(C)C3)cc12 (configuration not stated)	-6.5	-0.3	·	·	·
CCOC(=O)c1sc2nc(SCC(=O)NCc3ccco3)n(Cc3ccccc3)c(=O)c2c1C	3.1	0.4	i	i	i
Cc1cccc2cc(COC(=O)C(C)(C)C)c(=O)[nH]c12	-1.9	-4.1	i	i	i

The results go on.
SMILES	FPR ligand	FPRL1 binder	VCAM-1 down	VCAM-1 augmentation	VCAM-1 down imaging
COc1ccccc1N1CCN(C(CNC(=O)c2ccc3c(c2)OCO3)c2cccnc2)CC1 (configuration not stated)	-3.3	-0.3	·	·	·
COc1ccccc1NC(=O)CSc1nnc(Cc2cccn2C)n1CCc1ccccc1	2.2	-0.2	·	·	·
O=C(CN1C(=O)C2C3C=CC(C3)C2C1=O)Nc1cccc2c1CCCC2 (configuration not stated)	-3.2	-0.6	·	·	·
CC(C)OC(=O)c1nnn(-c2nonc2N)c1CN1CCc2ccccc2C1	42.8*	-10.2	·	·	·
CCOC(=O)N1CCN(C(=O)CCSCCc2ccncc2)CC1	-6.1	5.6	·	·	·
COc1ccc2c(c1)CCc1c(C(=O)Nc3ccn(Cc4ccc(C)cc4)n3)noc1-2	-2.8	5.3	·	·	·
Cc1ccc(C)c(N2CCN(S(=O)(=O)c3ccc4[nH]c(=O)c(=O)[nH]c4c3)CC2)c1	9.3	1.0	·	·	·
Cc1ccc(CCNC(=O)C2CCCN(S(=O)(=O)c3c(C)noc3/C=C/N(C)C)C2)cc1 (configuration not stated)	10.6	12.9	·	·	·
Clc1ccc(Cn2ncc3c(NCc4cccnc4)ncnc32)cc1	6.9	-5.1	i	i	i
CN(CC(=O)NCCC1=CCCCC1)S(=O)(=O)c1ccc2c(c1)c(=O)n(C)c(=O)n2C	8.6	-8.6	·	·	·
COc1ccccc1N1CCN(Cc2nc(N)nc(Nc3ccc(C)c(Cl)c3)n2)CC1	6.4	-0.6	i	i	i
O=C(CCn1c(=O)c2sccc2n(CC(=O)OCc2ccccc2)c1=O)NCc1ccco1	0.5	5.6	·	·	·
O=C(O)C1CCN(C(=O)c2scc3c2OCCO3)CC1	3.5	-1.3	·	·	·
COc1ccc(CNC(=O)c2cc3c(=O)n4ccccc4nc3n(Cc3ccco3)c2=N)cc1	6.3	5.7	i	i	i
O=C1CC(=O)CC(c2ccco2)C1	-1.8	1.8	·	·	·
COc1ccc(-c2nnc(SCC(=O)NC(C)c3ccccc3)o2)cc1 (configuration not stated)	-1.9	-2.7	i	i	i
CN(CC(=O)N1CCN(c2ccc(F)cc2)CC1)S(=O)(=O)c1ccc(F)cc1	0.1	-2.8	i	i	i
COc1ccc(Cl)cc1NC(=O)CN1C(=O)CCS(=O)(=O)c2ccccc21	-1.6	-0.8	·	·	·
CCOc1ccc(N(C(C)C(=O)NC2CCCCCC2)S(C)(=O)=O)cc1 (configuration not stated)	5.6	-3.5	i	i	i
COC(=O)Cn1nc(-c2ccccc2)n(-c2ccccc2)c1=S	9.3	20.5	·	·	·
Cn1c(=O)[nH]c(=O)c2[nH]c(NCCCN3CCOCC3)nc21	-4.3	-2.3	i	i	i
COc1ccc(CCn2c(-c3ccco3)nc3ccccc3c2=O)cc1OC	4.6	2.5	i	i	i
Cc1nnc(SCC(=O)Nc2ccc3c(c2)OCCO3)n1CC1CCCO1 (configuration not stated)	-0.6	5.0	i	i	i
COc1ccccc1-n1c(CNC(=O)c2ccco2)nnc1SCC(=O)Nc1cc(C)ccc1C	-2.0	-0.7	·	·	·
CCOc1ccc(NC(=O)N(C2CCCCCC2)C2CCN(C(C)=O)CC2)cc1	-2.9	0.4	·	·	·

A draw from above in order of molar mass, rising:
SMILES	FPR ligand	FPRL1 binder	VCAM-1 down	VCAM-1 augmentation	VCAM-1 down imaging
O=C(O)C1CCN(C(=O)c2scc3c2OCCO3)CC1	3.5	-1.3	·	·	·
Cn1c(=O)[nH]c(=O)c2[nH]c(NCCCN3CCOCC3)nc21	-4.3	-2.3	i	i	i
Clc1ccc(Cn2ncc3c(NCc4cccnc4)ncnc32)cc1	6.9	-5.1	i	i	i

Carrying on:
SMILES	FPR ligand	FPRL1 binder	VCAM-1 down	VCAM-1 augmentation	VCAM-1 down imaging
CCCN(Cc1cc2ccc(C)cc2[nH]c1=O)C(=O)c1cccnc1	1.2	-7.9	i	i	i
Cc1ccc(Cn2nnc3c(=O)n(Cc4cccc(C)c4)cnc32)cc1	3.9	1.5	·	·	·
Cc1c(NC(=O)CCc2ccc(S(=O)(=O)N3CCOCC3)cc2)c(=O)n(-c2ccccc2)n1C	-2.3	2.8	i	i	i
CC(C)Cn1c(CN2CCN(c3ccccc3F)CC2)nc2c1c(=O)[nH]c(=O)n2C	0.4	-2.6	i	i	i
N#Cc1c(-c2ccc3c(c2)OCO3)csc1N	-2.0	3.9	i	i	i
O=C(c1cccc(N2CCCC2=O)c1)N1CCN(c2ccccc2)CC1	1.2	2.8	·	·	·
Cc1ccc(Cl)cc1N1CCN(S(=O)(=O)c2cnc[nH]2)CC1	-7.8	-0.8	·	·	·
CCOc1ccc(S(=O)(=O)N2CCc3ccccc3C2)cc1	2.8	-4.0	·	·	·
COc1ccc(CN(C(=O)CSc2nnc(-c3ccccc3F)o2)c2ccc(F)cc2)cc1	-2.7	-5.6	i	i	i
COCCCNC(=O)CCN1C(=O)COc2ccccc21	-5.7	-3.3	·	·	·
O=C(c1ccccc1)c1cccn1CC(=O)N1CCCCCC1	2.8	-3.6	·	·	·
O=C1NC(c2cccnc2)C(C(=O)c2cccs2)C(O)(C(F)(F)F)N1 (configuration not stated)	1.0	-0.1	i	i	i
COc1ccc(-c2nc3c(n2O)CCC/C3=N\O)cc1	1.3	-4.4	i	i	i
CC(=O)NCC(=O)NC(C(=O)Nc1ccc2c(c1)OCCO2)c1ccc(C)cc1 (configuration not stated)	-4.1	0.1	·	·	·
Cc1ccnc(NC(=O)C2CCCN(S(=O)(=O)c3cnc[nH]3)C2)c1 (configuration not stated)	3.2	4.6	i	i	i
Cc1cc(Nc2ccc(F)cc2Cl)n2nc(C)nc2n1	0.7	-3.8	·	·	·
O=C(C1CCN(S(=O)(=O)c2ccc(Br)s2)CC1)N1CCc2ccccc21	-14.4	-12.4	·	·	·
CCOC(=O)Cc1nnc(Nc2cccc(O)c2)c2ccccc12	-10.1	1.6	i	i	i
Cc1ccc(-c2nc(NC(=O)CSc3nnnn3-c3ccccc3)ns2)cc1	0.5	7.8	·	·	·
COC(=O)CN1C(=O)CC(C)(C)Sc2ccccc21	-2.2	2.3	·	·	·
CCOc1cc2[nH]c(=S)n(CCCN3CCCC3=O)c(=O)c2cc1OCC	1.9	-7.9	·	·	·
Cc1nc2ccccc2c2oc(C(=O)NCCN3CCCCC3C)cc12 (configuration not stated)	-4.0	-0.1	i	i	i
c1ccc2c(c1)CC(N1CCCCC1)c1ccccc1N2 (configuration not stated)	2.5	-3.2	i	i	i
COc1ccc(S(=O)(=O)Cc2ccc(C(=O)N3CCN(C(=O)c4ccco4)CC3)o2)cc1	3.4	-5.2	·	·	·
COc1cccc(CNC(=O)C2CCN(S(=O)(=O)c3ccc4c(c3)CCC(=O)N4)CC2)c1	1.0	-0.1	·	·	·

Later entries
SMILES	FPR ligand	FPRL1 binder	VCAM-1 down	VCAM-1 augmentation	VCAM-1 down imaging
Cc1nn(C(=O)c2ccc3c(c2)OCO3)c(N)c1-c1ccccc1	4.0	2.7	i	i	i
CCC(Sc1ncnc2c1nnn2-c1ccc(F)cc1)C(=O)OC (configuration not stated)	-2.4	-3.0	·	·	·
O=C1c2ccccc2C(Nc2cccc(C(F)(F)F)c2)N1Cc1ccco1 (configuration not stated)	2.1	-10.7	·	·	·
CCN(CC)c1nc(C#N)nc(N(CC)CC)n1	-0.8	-3.0	·	·	·
COCCn1c(C)cc(C(=O)COC(=O)CCN2C(=O)c3ccccc3C2=O)c1C	1.3	-0.5	i	i	i
COc1cc(C)c(N)cc1C(C)C	-9.4	-5.3	i	i	i
Cc1ccnc(NC(=O)CCc2c(C)nc3ncnn3c2C)c1	-4.3	1.9	·	·	·
COc1ccc(CN(C(=O)c2oc3ccccc3c2C)C2CCS(=O)(=O)C2)cc1 (configuration not stated)	-1.7	-2.6	i	i	i
COc1ccc(Cl)cc1N(C)C(=O)CCNC(=O)Cn1cnc2ccccc2c1=O	-13.0	-22.3	·	·	·
CCN(CC)C(=O)c1ccc(O)c(OC)c1	1.5	4.2	i	i	i
CC(=O)Oc1ccc(CCC(C)OC(C)=O)cc1 (configuration not stated)	-6.2	4.3	i	i	i
CC1(C)OC(=O)C(=CNn2cnc3ccccc3c2=O)C(=O)O1	3.9	1.7	·	·	·
CCOC(=O)c1[nH]c(C)c(C(=O)NC)c1C	1.0	0.4	i	i	i
CCCN1C2=C(C(=O)CCC2)C(c2ccc(O)c(Br)c2)C2=C1CCCC2=O	-4.5	-2.8	i	i	i
Cc1ccc(-c2nc(CS(=O)CC(=O)NCCN(CC(C)C)CC(C)C)c(C)o2)cc1 (configuration not stated)	5.8	-1.8	i	i	i
COc1ccccc1C1c2c(oc3ccc(Cl)cc3c2=O)C(=O)N1c1cc(C)on1 (configuration not stated)	16.0	7.1	i	i	i

5 entries picked at random from the list so far, as already listed:
SMILES	FPR ligand	FPRL1 binder	VCAM-1 down	VCAM-1 augmentation	VCAM-1 down imaging
Cc1ccnc(NC(=O)CCc2c(C)nc3ncnn3c2C)c1	-4.3	1.9	·	·	·
CCOC(=O)c1[nH]c(C)c(C(=O)NC)c1C	1.0	0.4	i	i	i
COc1ccc(CN(C(=O)c2oc3ccccc3c2C)C2CCS(=O)(=O)C2)cc1 (configuration not stated)	-1.7	-2.6	i	i	i
CC(=O)Oc1ccc(CCC(C)OC(C)=O)cc1 (configuration not stated)	-6.2	4.3	i	i	i
CCN(CC)c1nc(C#N)nc(N(CC)CC)n1	-0.8	-3.0	·	·	·
